Screening results deposited in PubChem by National Center for Advancing Translational Sciences (NCATS).
Lassa entry inh – qHTS for Inhibitors of binding or entry into cells for Lassa Virus. Lassa virus pseudotype entry inhibition, cell reporter; control for the full effect not named in the record. Potency, µM (series often up to 37.9 µM), inactives show top-dose activity change, negative = inhibition, most hits filed as inhibitors. actives 1.2% (n = 300,000). AID 540256, 2011; active means well fitted inhibition curve with a large enough effect; inconclusive means small, poorly fitted or top-dose-only effect, or effect the other way; inactive means flat fitted curve, though single readings scatter; tested in HEK293 cells; note: % is set by controls: 0 for no effect and ±100 for the full control effect; nearly all actives have a fitted effect of over 50% in size; luciferase read-out
SARS PLP yeast – qHTS of Yeast-based Assay for SARS-CoV PLP. actives 0.19% (n = 330,000). AID 485353, 2010. Potency, µM (doses to about 32.9 µM), for inactives: top-dose activity, positive = growth rescue. S. cerevisiae expressing SARS-CoV PLpro, growth rescue; control for the full effect not named in the record; note: 0% is about no effect; nearly all actives have a fitted effect of over 55% in size; growth read by luminescence after 48 h
Cruzain Triton – qHTS Assay for Promiscuous and Specific Inhibitors of Cruzain (with detergent). Cruzipain (Trypanosoma cruzi), P25779. purified cruzain, Z-FR-AMC fluorescence, 0.01% Triton. Potency, µM, without a hit: max response, negative = inhibition, hits mostly inhibitors. actives 0.43% (n = 200,000). AID 1478, 2009; active = well fitted curve in the direction sought with a large enough effect; inconclusive = small, poorly fitted or top-dose-only effect, or another doubt; inactive = no such curve, though single readings can be large; an effect the other way counts as inactive or inconclusive;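 note: plate controls were neutral wells for no effect and buffer without enzyme for full effect; nearly all actives have a fitted effect of over 40% in size; top concentration of the series not given in the record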
Target sequence (P25779 123-467 limits assumed): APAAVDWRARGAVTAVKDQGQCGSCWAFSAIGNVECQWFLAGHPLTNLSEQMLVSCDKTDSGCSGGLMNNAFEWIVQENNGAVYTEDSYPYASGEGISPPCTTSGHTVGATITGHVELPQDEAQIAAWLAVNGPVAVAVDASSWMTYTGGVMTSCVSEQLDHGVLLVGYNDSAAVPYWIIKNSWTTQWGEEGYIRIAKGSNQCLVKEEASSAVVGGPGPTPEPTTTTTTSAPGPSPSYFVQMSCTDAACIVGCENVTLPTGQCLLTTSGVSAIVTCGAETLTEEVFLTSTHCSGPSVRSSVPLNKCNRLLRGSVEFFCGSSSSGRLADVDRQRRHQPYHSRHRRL
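Steps: dispense cruzain (1.5 nM final) in acetate buffer pH 5.5 with DTT and 0.01% Triton X-100; pin-transfer compounds; incubate 15 min RT; add Z-FR-AMC (2 uM final); read fluorescence every 30 s, using the 60 s intensity change.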
NS1 inh – qHTS Assay for Inhibitors of Influenza NS1 Protein Function. S. cerevisiae slowed by influenza A NS1, growth recovery by OD600. Potency, µM (titrated, usually from 46.1 µM), for the others: at the highest dose activity, positive = more growth. actives 0.4% (n = 270,000). AID 2326, 2010; note: actives are rising curves; nearly all actives have a fitted effect of over 50% in size
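OD600 was taken as the measure of yeast growth restored by compound in an NS1-expressing S. cerevisiae strain. Cells had been washed out of glucose medium and diluted 1:100 into galactose -URA medium, pH 6.0.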
RE007 growth inh – qHTS Assay for Inhibitors of the HIV-1 protein Vpr; Potency, µM (series often up to 92.2 µM), inactives show at the top dose activity change, negative = less growth; S. pombe RE007 Vpr strain, BacTiter-Glo ATP luminescence, 24 h; control for the full effect not named in the record; actives 0.21% (n = 360,000); active = well fitted falling curve with a large enough effect; inconclusive = small, poorly fitted or top-dose-only effect; inactive = no such curve, though single readings can be large or run the other way;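 note: % is set by controls: 0 for no effect and ±100 for the full control effect; nearly all actives have a fitted effect of over 50% in size; the assay follows cell death caused by Vpr and the record does not say whether a fall means rescue or toxicity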
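Fission yeast RE007 carrying one integrated HIV-1 vpr copy, seeded at OD 0.01 in PMG+AL medium with 23 nL pinned compound. Grown 24 h at 30 degrees; viability read by BacTiter-Glo luminescence after 5 min.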
StopGo reporter – High Throughput Screening for Foot and Mouth Disease Virus Antivirals | human cells with a luciferase reporter of 2A StopGo recoding; control for the full effect not named in the record | actives 1.2% (n = 410,000) | Potency, µM (doses to about 57.9 µM), for inactives: at the highest dose signal change, negative = less light; active = well fitted falling curve with a large enough effect; inconclusive = small, poorly fitted or top-dose-only effect; inactive = no such curve, though single readings can be large or run the other way; tested in HEK293T cells; note: % is set by controls: 0 for no effect and ±100 for the full control effect; nearly all actives have a fitted effect of over 45% in size; luciferase light after 4 h
Cruzain inh noDet – qHTS Assay for Promiscuous and Specific Inhibitors of Cruzain (without detergent); Cruzipain (Trypanosoma cruzi), P25779; purified cruzain, Z-FR-AMC fluorescence, no detergent; Potency, µM, inactives show max response, negative = inhibition, usual class: inhibitors; actives 2.3% (n = 200,000); AID 1476, 2009; active = well fitted curve in the direction sought with a large enough effect; inconclusive = small, poorly fitted or top-dose-only effect, or another doubt; inactive = no such curve, though single readings can be large; an effect the other way counts as inactive or inconclusive;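 note: plate controls were enzyme without inhibitor for no effect and buffer without enzyme for full effect; nearly all actives have a fitted effect of over 40% in size; top concentration of the series not given in the record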
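Detergent-free condition (0.00005% Triton X-100) in acetate buffer pH 5.5 with DTT. 1.5 nM enzyme and compound were pre-mixed 15 min, then 2 uM Z-FR-AMC substrate added; reaction progress from fluorescence change between first and third reads (60 s).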
Marburg entry inh – qHTS for inhibitors of binding or entry into cells for Marburg Virus; Marburg virus pseudotyped entry inhibition, cell reporter; control for the full effect not named in the record; about a third of the inactives were read at about 46 µM; Potency, µM (highest dose often 37.8 µM), inactives show at the top dose activity change, negative = inhibition, usual class: inhibitors; actives 1.8% (n = 300,000); AID 540276, 2011; active = well fitted inhibition curve with a large enough effect; inconclusive = small, poorly fitted or top-dose-only effect, or effect the other way; inactive = flat fitted curve, though single readings scatter; tested in HEK293 cells; about a fifth of its hits are not listed in these tables; note: % is set by controls: 0 for no effect and ±100 for the full control effect; luciferase read-out
* hit, by the source's call; ? = inconclusive; . = no result given; [ ] = remark or other dose. Unless noted, calls come from the whole dose curve; as a rule, active means well fitted rising curve with a large enough effect; inconclusive means small, poorly fitted or top-dose-only effect; inactive means no such curve, though single readings can be large or run the other way. Potency is the fitted concentration of half-maximal effect. Not a hit list, and some 4.7% of all compounds hit somewhere here.

Results follow in this order: RE007 growth inh	Lassa entry inh	SARS PLP yeast	Marburg entry inh	StopGo reporter	NS1 inh	Cruzain Triton	Cruzain inh noDet
- CCOc1ccc2oc(C(=O)NC3CCN(Cc4ccccc4)CC3)c(C)c2c1
  11%	11µM*	0%	?	?	.	.	.
- CCOCCCNc1c(CC)c(C)c(C#N)c2nc3ccccc3n12
  -2%	.	4%	.	-11%	-10%	.	.
- O=C(CSc1nnc(CNC(=O)c2ccco2)o1)NC1CCCC1
  4%	-2%	.	7%[46.1 µM]	-11%	6%	6.0%	7%
- O=C(COc1ccccc1)N1CCN(C(=O)c2ccccc2F)CC1
  -6%	-18%	1%	15%[46.1 µM]	12%	29%	.	.
- COC(=O)CC(=O)CSc1nc2c(cc1C#N)CCCCC2
  -6%	-8%	1%	6%	.	23%	-3.8%	-3%
- Cc1cc(C)nc(NS(=O)(=O)c2ccc(NC(=O)CSc3ncn[nH]3)cc2)n1
  -9%	2%	0%	?	5%	-3%	.	.
- COc1cccc(/C=C2\SC(=S)N(C(C)C(=O)NC3C=CS(=O)(=O)C3)C2=O)c1 (stereo not given)
  18%	.	-3%	.	0%	3%	.	.
- CC(=O)OCCCN1c2ccccc2Nc2nnc(-c3ccccc3)cc21
  -16%	0%	2%	0%[46.1 µM]	-12%	-1%	-0.3%	0%
- Cc1ccc(C(=O)NCC(=O)Nc2ccc(Cl)cc2)s1
  0%	14%	-2%	-8%	26%	.	.	.
- COc1ccc(NC(=S)N2CCN(S(=O)(=O)c3ccc(F)cc3)CC2)cc1OC
  1%	0%	4%	21%	22%	2%	.	.
- Cc1ccc(S(=O)(=O)N2CCN(Cc3cc(C(C)C)ccc3O)CC2)cc1
  -14%	?	-12%	?	?	-33%	-0.2%	5%
- COc1ccc(NS(=O)(=O)c2ccc(OCC(=O)N3CCOCC3)cc2)cc1Cl
  17%	-19%	-4%	?	-4%	-1%	.	.
- CCc1ccc(CCC(=O)N2CCN(S(=O)(=O)c3sc(C(=O)O)c(C)c3C(=O)O)CC2)cc1
  -2%	5%	.	0%	-7%	.	.	.
- O=C(CCC(=O)N1CCN(S(=O)(=O)c2cccc(F)c2)CC1)c1cccs1
  -5%	18%	0%	?	2%	.	.	.
- FC(F)(F)c1cccc(CN2CCCCCC2)c1
  8%	-1%	0%	16%	16%	14%	0.9%	1%
- COc1ccc(C(=O)Nc2sc3c(c2C(=O)NCc2ccco2)CCCC3)cc1OC
  -5%	?	9%	-2%	-25%	4%	-15%	30%
- Fc1ccccc1N1CCN(C(c2ccncc2)c2nnnn2C2CCCC2)CC1 (stereo not given)
  -12%	-1%	-10%	0%	.	-14%	1.7%	4%
- COc1cc(NC(=O)CN(C)Cc2cccc(F)c2)c(C)cc1[N+](=O)[O-]
  -10%	-18%	0%	-8%	-11%	.	.	.
- Cc1ccnc(SCC(=O)N2CCC(C(N)=O)CC2)n1
  1%	16%	-7%	11%	-4%	4%	6.9%	2%
- CC(=O)Nc1ccc(NC(=O)C2CCCN2C(=O)NC2CCCCC2)cc1 (stereo not given)
  4%	?	-1%	15%[46.1 µM]	0%	1%	.	.
- CC1CCN(S(=O)(=O)c2cc3c4c(c2)CCN4C(=O)CC3)CC1
  -12%	-8%	3%	-1%	0%	.	.	.
- CC(NS(=O)(=O)c1cccc(C(=O)O)c1)C12CC3CC(CC(C3)C1)C2 (stereo not given)
  6%	-2%	2%	17%	5%	.	.	.
- CC1CCN(C(=O)CSCC(=O)O)CC1
  -10%	1%	0%	7%[46.1 µM]	-3%	-2%	.	.
- FC(F)(F)c1ccc(/C=N/N2CCN(Cc3cccc4ccccc34)CC2)cc1
  5%	-1%	1%	?	18%	8%	-1.4%	13%
- Cc1ccc(C)c(-c2csc(NC(=O)C3=COCCO3)n2)c1
  25µM*	-18%	-33%	-16%[46.1 µM]	-16%	.	.	.
- O=C(COc1ccc(S(=O)(=O)NC2CCCCC2)cc1Cl)NCc1cccnc1
  7%	16%	-1%	7%	67%[activator]	-15%	1.9%	9%
- Cc1ccccc1N1CCN(C2CCCN(C(=O)CCC(F)(F)F)C2)CC1 (stereo not given)
  -12%	.	?	.	-15%	9%	.	.
- COc1ccc(S(=O)(=O)Oc2ccc3cccc(N)c3c2)cc1
  -2%	-17%[46.1 µM]	.	?	1%	.	.	.
- N#Cc1c(OCC(=O)c2ccccc2)nc2c(c1-c1ccco1)CCc1ccccc1-2
  -9%	-16%	-4%	-26%	-6%	4%	14µM*	7.9µM*
- Oc1ccc2ccccc2c1C=NC1CCCCC1
  -26%	-29%[46.1 µM]	-6%	-12%[46.1 µM]	9%	.	.	.
- C=C(C)CNC(=S)N/N=C(\C)c1ccc(OC)cc1
  1%	?	-29%	?	-20%	-17%	-8.8%	-2%
- CCCCn1c(SC(C)C(=O)c2ccc(OC)cc2)nc2cc(S(N)(=O)=O)ccc21 (stereo not given)
  1%	2%	0%	?	-6%	18%	-12%	9%
- CCN(CC)Cc1c(O)ccc2occ(C(=O)c3ccccc3)c12
  -9%	.	-7%	.	-7%	1%	.	.
- O=C(CCc1ccccc1)NNc1ccc(F)cc1
  141%	?	0%	?	20%	-32%	.	.
- Cc1cc(C)n2nc(C(=O)N3CCCC(Nc4ccc(C(C)C)cc4)C3)cc2n1 (stereo not given)
  -2%	.	-4%	.	-13%	-4%	.	.
- C=CCSc1nc2sc3c(c2c(=O)n1CC=C)CCc1ccccc1-3
  17%	2%	11%	?	-26%	-2%	-6.3%	?
- Cc1ccc(Cl)cc1N(C)C(=O)c1cc2ccc3cccnc3c2[nH]1
  .	?	.	.	7%	.	-7.3%	26%
- Cc1cccc(C)c1-n1ncc(C(=O)NCCCN2CCC(C)CC2)c1C1CCN(C(=O)OC(C)(C)C)CC1
  .	8%[46.1 µM]	.	.	-27%	.	-0.5%	-6%
- Cc1cc2oc(C(=O)N(Cc3ccccc3)C3CCS(=O)(=O)C3)cc(=O)c2cc1Cl (stereo not given)
  3%	-11%	4%	?	-2%	8%	1.1%	?
- CC(=O)c1c(C)cc(C)c(CSc2ccccn2)c1C
  -6%	10%	2%	1%	10%	-13%	.	.
- O=C(NCc1nc(-c2ccc(C(F)(F)F)cc2)no1)Nc1ccc(OC(F)(F)F)cc1
  12%	?	-3%	?	-12%	2%	.	.
- CC(C)Oc1cc(N)c(Cl)cc1Cl
  -9%	5%[46.1 µM]	-4%	-31%[46.1 µM]	-5%	.	.	.
- Cc1ccccc1-n1ncc2c(SCC(=O)NCc3cccs3)ncnc21
  10%	?	0%	?	0%	?	3.4%	-7%
- CCc1ccc(C(=O)CSc2nnc(C)c(=O)[nH]2)cc1
  5%	16%	-2%	-1%	.	2%	0.5%	-2%
- CN(C1CCCCC1)S(=O)(=O)c1ccc(C(=O)N2CCN(c3nc4ccccc4s3)CC2)cc1
  0%	-12%	2%	5%	?	0%	-7.2%	-2%
- O=C(Cc1c(F)c(F)c(F)c(F)c1F)Nc1nc(-c2ccccc2)cs1
  12%	?	0%	?	?	-86%	.	.
- CCOc1ccc2[nH]c3nc(SCC(=O)NCC4CCCO4)nnc3c2c1 (stereo not given)
  17%	.	1%	?	-21%	1%	.	.
- N#CC1=C(N)OC2=C(C(=O)CCC2)C1c1ccoc1 (stereo not given)
  -8%	4%	1%	20%[46.1 µM]	-10%	4%	.	.
- O=C(NC1CC2CCCC(C1)N2S(=O)(=O)c1ccccc1)C1CCCCC1 (stereo not given)
  7%	-17%	-4%	-15%	.	5%	-0.2%	-7%
- Cc1ccc2nc(N(CCCN(C)C)C(=O)c3ccc4ncsc4c3)sc2c1
  4%	?	-14%	?	-14%	-10%	.	.
- COc1ccccc1OCC(=O)Nc1cc(S(=O)(=O)N2CCOCC2)ccc1N1CCCCC1
  -3%	?	-10%	?	-8%	.	.	.
- COC(=O)c1ccc2[nH]c(C(C)(C)O)c(C)c2c1
  -4%	.	-18%	.	44%[activator]	0%	.	.
- Cc1cc(C)cc(NC(=S)NN)c1
  0%	.	0%	-3%[46.1 µM]	-9%	6%	.	.
- COc1cccc(N=C2SC(C(=O)Nc3cccc(Cl)c3)CC(=O)N2C)c1 (stereo not given)
  .	-13%[46.1 µM]	.	.	-25%	.	-9.5%	4%
- CCOC(=O)c1ccc(NC(=O)CCn2c(=O)c3cccn3c3cccnc32)cc1
  .	1%[46.1 µM]	.	.	-25%	.	-5.1%	5%
- O=C(/C=C/c1ccc2c(c1)OCCO2)c1ccc(O)cc1
  -23%	?	-3%	-21%[46.1 µM]	-6%	-33%	.	.
- Cc1nn(C)cc1CNCc1ccc(OCC(O)CN(C)Cc2ccccc2)cc1 (stereo not given)
  -7%	.	0%	.	-10%	2%	.	.
- O=S(=O)(Nc1ccccc1N1CCOCC1)c1cccs1
  -6%	26%	-9%	-15%	0%	.	.	.
- O=C(Nc1cc2cccc([N+](=O)[O-])c2oc1=O)c1cccs1
  -13%	19%	2%	24%[46.1 µM]	24%	.	.	.
- CC(C)c1cnc2c(c1SCc1cccc(C(F)(F)F)c1)c(=O)n(C)c(=O)n2C
  .	16%[46.1 µM]	.	.	?	.	2.8%	0%
- CC(C)CN1CCN(CCCc2ccccc2)C(CCO)C1 (stereo not given)
  3%	15%	-3%	11%	-7%	16%	.	.
- O=C(/C=C/c1ccccc1[N+](=O)[O-])c1ccc(F)cc1
  -21%	16%	1%	7%	-9%	6%	.	.
- O=C(Nc1ccncc1)c1ccc(N2CCCC2=O)cc1
  2%	-14%[46.1 µM]	-1%	?	-19%	.	.	.
